Screening results: PubChem, National Center for Advancing Translational Sciences (NCATS)
2A Renilla: lowers the Renilla signal of an FMDV 2A StopGo reporter; HEK cells with a luciferase reporter of 2A StopGo recoding; Potency, µM (doses to about 57.5 µM), for inactives: at the top dose signal change, negative = less light; 120,000 tested, 0.32% active; active means well fitted falling curve with a large enough effect; inconclusive means small, poorly fitted or top-dose-only effect; inactive means no such curve, though single readings can be large or run the other way; also: nearly all actives have a fitted effect of over 55% in size; overnight with compound
StopGo FLuc: FMDV 2A StopGo reporter, firefly signal; HEK cells with a luciferase reporter of 2A StopGo recoding; Potency, µM (highest dose often 57.5 µM), inactives show top-dose signal change, negative = less light; 120,000 tested, 0.23% active; AID 1745856; active = well fitted falling curve with a large enough effect; inconclusive = small, poorly fitted or top-dose-only effect; inactive = no such curve, though single readings can be large or run the other way; also: nearly all actives have a fitted effect of over 60% in size; overnight with compound
* marks the source's active call; other numbers are inactive results; ? = inconclusive; & = joins results of further samples; ! = repeats disagree; [ ] = dose if it differs, or a comment. % is scaled to controls: 0 for no effect and ±100 for the full control effect; potency is read from the fitted curve at half-maximal effect. Some of the compounds tested, so the mix of outcomes need not match the whole.

SMILES	2A Renilla	StopGo FLuc
Cc1cc(C)cc(NC(=O)Cn2c(=O)c3ccccc3n3nncc23)c1	-11%	-16%
O=C(c1cccs1)N(Cc1ccc2[nH]ccc2c1)C1CC1	38%[activator]	17%
Cn1c(SCC(=O)NCc2cccs2)nnc1-c1ccc2c(c1)OCCCO2	11%	30%[activator]
O=C(NCc1ccccc1)c1ccc(CS(=O)(=O)c2c(Cl)cccc2Cl)o1	7%	-12%
O=C(c1cn(Cc2ccc(F)cc2)c2ccccc12)C1CCCCC1	19%	12%
O=C(Cn1cnc2ccsc2c1=O)N(Cc1cccs1)c1ccc2c(c1)OCCO2	32%[activator]	15%
CN(Cc1ccccc1)c1nnc(NC(=O)Nc2cccc(Br)c2)s1	-21%	-17%
COc1ccc(C2Oc3c(C(C)(C)C)cc(C(C)=O)c4c(OC(C)=O)c(C(C)(C)C)cc2c34)cc1OC (configuration not stated)	29%	21%
Cc1oc(-c2ccccc2)nc1CC(=O)Nc1cc(Cl)c(N)c(Cl)c1	-8%	-10%
COc1ccc(N(Cc2cccs2)C(=O)c2ccc(Br)o2)cc1	25%	-5%
O=C(Nc1ccc(S(=O)(=O)N(Cc2ccccc2)c2ccccc2)cc1)c1ccc([N+](=O)[O-])cc1	-12%	-13%
COc1cc(C=O)c(-c2ccccc2)cc1OC	21%	11%
O=C(O)CCCCCCCCCc1cccs1	-12%	-7%
O=C(Nc1nc(-c2c[nH]c3ccccc23)cs1)C1CCC1	22%	193%[activator]
COc1cc(C(=O)Nc2nc(C)c(C(=O)N(C)C)s2)cc(OC)c1OC	18%	38%[activator]
CNS(=O)(=O)c1cc(NS(=O)(=O)c2c(F)cc(F)cc2Br)ccc1C	0%	2%
COc1ccc2nc(NC(=O)c3ccc(S(=O)(=O)N4CCC(C)CC4)cc3)sc2c1	-5%	3%
CCOP(=O)(OCC)c1nc(-c2cccs2)oc1NCc1ccc(F)cc1	103%[activator]	6%
COc1ccc2c(c1)CCCN2S(=O)(=O)c1cc(C)ccc1C	79%[activator]	5%
CCNC(=O)NC(=O)COC(=O)c1cc(-c2cccs2)nc2ccccc12	-2%	-2%
O=C1/C(=C\c2cccc(Cl)c2)Cc2ccccc21	-4%	108%[activator]
O=C(/C=C/c1ccc(Br)cc1)N(C1CCCCC1)C1CCCCC1	4%	22%
O=c1c2ccccc2c(-c2nnc(SCC3CCCO3)o2)nn1Cc1ccccc1 (configuration not stated)	59%[activator]	55%[activator]
CC(O)CNc1nc2c(c(=O)n(Cc3ccc(Cl)cc3)c(=O)n2C)n1C (configuration not stated)	-2%	5%
O=C(Nc1ccccc1F)C1CC2CCC1C2 (configuration not stated)	6%	51%[activator]

Sorted by heavy-atom count (lowest first): some entries from above.
SMILES	2A Renilla	StopGo FLuc
O=C1/C(=C\c2cccc(Cl)c2)Cc2ccccc21	-4%	108%[activator]
O=C(/C=C/c1ccc(Br)cc1)N(C1CCCCC1)C1CCCCC1	4%	22%
COc1ccc2nc(NC(=O)c3ccc(S(=O)(=O)N4CCC(C)CC4)cc3)sc2c1	-5%	3%

Three successive records from above, quoted:
SMILES	2A Renilla	StopGo FLuc
COc1cc(C=O)c(-c2ccccc2)cc1OC	21%	11%
O=C(O)CCCCCCCCCc1cccs1	-12%	-7%
O=C(Nc1nc(-c2c[nH]c3ccccc23)cs1)C1CCC1	22%	193%[activator]

Further entries follow.
SMILES	2A Renilla	StopGo FLuc
O=C(c1cc(-c2ccc3c(c2)OCO3)nc2ccccc12)N1CCN(Cc2ccc3c(c2)OCO3)CC1	7%	118%[activator]
CCOc1cc2nc(-c3ccc(OC)c(OC)c3)nc(N3CCC(C)CC3)c2cc1OC	0%	-7%
COc1ccc2oc(C)c(C(=O)OC(C)C)c2c1	-4%	-4%
Cc1cc(SC(C)C(=O)Nc2sccc2C(N)=O)nc2ccccc12 (configuration not stated)	?	?
CC(C)CN(CC(C)C)CC(O)Cn1cc(/C=C/C(=O)c2ccccc2)c2ccccc21 (configuration not stated)	-23%	-25%
COc1ccc(C2=NOC(Cn3cnc4c3c(=O)n(C)c(=O)n4C)C2)cc1 (configuration not stated)	0%	0%
Cc1ccc(C)c(Cn2nc(-c3cc(C)ccc3C)ccc2=O)c1	-11%	-20%
O=C1CC(N2CCC(c3nc4ccccc4o3)CC2)C(=O)N1c1cccc(Cl)c1 (configuration not stated)	-10%	3%
COC(=O)c1scc(-c2ccc(C)cc2)c1S(=O)(=O)N1CCN(c2ccc(C(C)=O)cc2)CC1	26%	4%
Cc1cccc(CCN)c1	22%	24%
Cc1nc(/C=C/C(=O)NCc2ccccn2)cs1	8%	11%
Cc1ccc(Cl)cc1NC(=O)Cn1cnc2c1c(=O)n(C)c(=O)n2C	-2%	4%
Cc1cc(C)c2nc(N(Cc3cccnc3)C(=O)CCS(=O)(=O)c3ccccc3)sc2c1	0%&-2%	6%&-9%
CCc1cccc(CC)c1NC(=O)c1ccc2c(c1)CCC2	-14%[1.06 µM]	2%
Cc1ccccc1-c1nn2c(COc3ccc(F)cc3)nnc2s1	21%	13%
COC(=O)c1ccc(Cl)cc1NC(=O)N1CC=C(c2c[nH]c3ccccc23)CC1	-7%	0%
Cc1cc2nc(SCC(=O)Nc3cc(C(F)(F)F)ccc3Cl)[nH]c(=O)c2[nH]1	12%	22%
COCCNC(=O)CS(=O)(=O)Cc1nc(-c2cccc(Cl)c2)oc1C	8%	10%
Cc1ccc(F)c(NC(=O)c2ccn(Cn3nnc(-c4ccccc4)n3)n2)c1	3%	-4%
CCOC(=O)C1CCCN(C(=O)c2ccccc2NC(=O)c2nsc3ccccc23)C1 (configuration not stated)	3%	10%
Cc1cc(C(=O)OC(C(=O)N(C)C)c2ccccc2)on1 (configuration not stated)	-7%[1.06 µM]	10%
Cc1c(C(=O)N(CCc2cccs2)Cc2cccs2)[nH]c2c1C(=O)CC(C)(C)C2	145%[activator]	-21%
Cc1ccc(NC(=O)c2ccc3[nH]c(C)cc(=O)c3c2)c(C)c1	-3%	-5%
O=C(CSc1nc(Cl)nc2nc[nH]c12)NCCc1c[nH]c2ccccc12	-4%	-2%
O=C(O)CC(C(=O)O)c1ccco1 (configuration not stated)	11%	0%
Continuation.
SMILES	2A Renilla	StopGo FLuc
CCN(c1ccccc1)S(=O)(=O)c1nnc(NC(=O)c2ccco2)s1	87%[activator]	-6%
Cc1ccc(-n2ccn3c(CCC(=O)Nc4ccc(F)c(Cl)c4)nnc3c2=O)cc1C	1%	10%
O=S(=O)(c1ccc2c(c1)CCN2Cc1ccccc1Br)N1CCOCC1	-4%	-6%
Cc1ccc(NC(=O)c2ccccc2C(F)(F)F)c(F)c1	5%	60%[activator]
CCC(Sc1nc2ccccc2c(=O)n1CCc1ccc(OC)c(OC)c1)C(=O)N(CC)CC (configuration not stated)	0%	-27%
CCc1ccc(CN(Cc2ccco2)C(=O)c2ccc(C)cc2)cc1	55%[activator]	-23%
CCOC(=O)C1=C(c2ccccc2)NC(=S)NC1c1ccc(C)cc1 (configuration not stated)	13%	?
Cc1ccc(N2C(=O)C(CC(=O)Nc3ccccc3)N(CCC3=CCCCC3)C2=O)cc1 (configuration not stated)	210%[activator]	186%[activator]
CCc1ccc(OCC(=O)Nc2c(C)ccc3nsnc23)cc1	7%	18%
CCN(CC)c1ccc(NC(=O)C2CCN(S(=O)(=O)c3cnc[nH]3)CC2)c(C)c1	-10%	-12%
CCCCCCCCS(=O)(=O)CCCCCCC(=O)O	10%	4%
CN(CC(=O)NC(=O)NCc1ccccc1)Cc1ccc(Cl)cc1Cl	1%	-4%
CN(C)CCNC(=O)c1nc2c3c4c(sc3ncn2n1)CCCC4	-16%	-4%
O=C(CC1N=C2c3ccccc3N=C(SCC(=O)Nc3ccccc3F)N2C1=O)NCc1ccc2c(c1)OCO2 (configuration not stated)	-19%	59%[activator]
NCC1(N2CCCCC2)CCCCC1	15%	14%
COc1c(C)cc(NS(=O)(=O)c2ccc3c(c2)OCCO3)cc1C	188%[activator]	?
Cc1ccc(NC(=O)CCSCCc2ccccn2)cc1	-7%	-4%
COc1ccc(NC(=O)CCn2c(=O)c3cccn3c3cccnc32)cc1Cl	-8%	-8%
Cn1c(COc2ccccc2C(C)(C)C)nc2ccccc21	-8%	25%
CCc1ccc(NC(=O)Cn2c(=O)n(-c3cccc(OC)c3)c(=O)c3c(C)c(C(=O)N(C)C)sc32)cc1	-6%	-22%
CCCCCNC(=O)COC(=O)c1cc2c(C)cc(C)cc2[nH]1	0%	10%
Cc1nn(CC(=O)NCc2ccccc2Br)c(=O)c2cc3occc3n12	0%	0%
COc1cccc(C2CC(=O)N(c3cccc(C(F)(F)F)c3)C3=C2C(=O)OC3)c1OC (configuration not stated)	-9%	11%
Cc1ccc(NC(=O)c2n[nH]c(=O)c3ccccc23)cc1F	6%	179%[activator]
Cc1ccc(OCC(=O)Nc2cccc(-c3nc4cc(C)ccc4o3)c2)cc1	-4%	75%[activator]

Record cards, from the list above:
O=S(=O)(c1ccc2c(c1)CCN2Cc1ccccc1Br)N1CCOCC1 is entered as 2A Renilla = -4%; StopGo FLuc = -6%
NCC1(N2CCCCC2)CCCCC1 is entered as 2A Renilla = 15%; StopGo FLuc = 14%

(cont.)
SMILES	2A Renilla	StopGo FLuc
CCN(CC)S(=O)(=O)c1ccc(Sc2nnc(C)s2)nc1	13%	0%
CCc1ccc(C2C(C#N)=C(N)N(N3CCOCC3)C3=C2C(=O)CC(C)(C)C3)cc1 (configuration not stated)	12%	11%
O=C(O)c1ccccc1SCc1cn2ccccc2n1	-1%	48%[activator]
COc1cccc(CN2CCc3nc(N4CCN(c5ncccn5)CC4)ncc3C2)c1	?	?
CSc1ccc(CCNC(=O)CN2C(=O)COc3ccc(S(=O)(=O)N4CCCCCC4)cc32)cc1	48%[activator]	-4%
Cc1ccc2[nH]c(C(=O)NCc3ccc(C(=O)N4CCN(C)CC4)cc3)cc2c1	-13%	29%
COc1ccc(C2=CC(c3ccccc3Cl)n3nc(-c4ccc(C)cc4)nc3N2)cc1 (configuration not stated)	-12%	-17%
O=C(Oc1ccc(Br)cc1)c1cnccn1	-7%	142%[activator]
CCCNC(=O)CSc1nc(-c2ccccc2)[nH]c1S(=O)(=O)c1ccccc1	130%[activator]	6%
CC1=C(C(=O)Nc2ccc(Cl)cc2)C(C(C)C)n2nc(SCc3ccc(Cl)cc3)nc2N1 (configuration not stated)	-12%	-10%
Cc1cnc(C(=O)OC(C)C(=O)c2ccc(C(C)(C)C)cc2)cn1 (configuration not stated)	17%	0%
Cc1ccc(NS(=O)(=O)c2ccc(C(=O)N(C)Cc3ccccc3)cc2)cc1C	41%[activator]	?
COc1cc2nc(N(C)CCCNC(=O)C3CCCO3)nc(N)c2cc1OC (configuration not stated)	3%	9%
COC(=O)c1ccc(S(=O)(=O)N2CCCC2c2cccn2C)cc1 (configuration not stated)	-9%	3%
Cc1cc(C)c2oc(C(=O)Nc3c(C(=O)c4ccc(F)cc4)oc4ccccc34)cc(=O)c2c1	-5%	-6%
CS(=O)(=O)CCC(C(=O)NC1CCN(Cc2ccccc2)CC1)N1Cc2ccccc2C1=O (configuration not stated)	0%	0%
Cc1cccc(NC(=O)c2nc3ccccc3nc2N2CCOCC2)c1	-13%	18%
CCOc1ccc(OCC)c(NC(=O)Cn2nc(CC)n3c(cc4sccc43)c2=O)c1	78%[activator]	-6%
Cc1ccc(Cl)cc1-n1ncc2c(NC3CCCCCC3)ncnc21	25µM*!	?
CC1(C)C2CC=C(/C=N/NC(N)=S)C1C2 (configuration not stated)	28%	50%
Cc1cc(C)cc(NC(=O)Cn2c(C)cc(C)c(C#N)c2=O)c1	-12%	-12%
CCCN(CCC)CC(=O)Nc1sc2c(c1C(=O)Nc1ccc(OC)cc1)CCC2	-5%	18%
O=C(N/N=C\c1cccs1)c1ccccn1	24%	0%
Cc1ccc(NS(=O)(=O)c2ccc(N/N=C3/CCSC3)c([N+](=O)[O-])c2)c(C)c1	-21%	?
CCCCCCCCCCCCSCC(=O)O	8%	13%

Retrieved by compound from above, two records:
SMILES	2A Renilla	StopGo FLuc
Cc1cc(C)c2oc(C(=O)Nc3c(C(=O)c4ccc(F)cc4)oc4ccccc34)cc(=O)c2c1	-5%	-6%
Cc1ccc(NS(=O)(=O)c2ccc(N/N=C3/CCSC3)c([N+](=O)[O-])c2)c(C)c1	-21%	?

(further entries)
SMILES	2A Renilla	StopGo FLuc
COc1cc(/C=C(/C#N)c2ccccn2)c2c(c1)CC(C)O2 (configuration not stated)	-5%	9%
O=C(O)c1ccc2c(c1)OCCOCCOCCOCCO2	7%	-1%
CC(=O)c1ccc(NC(=O)C(C)OC(=O)c2ccccc2-n2cnnn2)cc1 (configuration not stated)	-1%	11%
CCCN1CCS(=O)(=O)N(Cc2cn(Cc3ccccc3)nn2)C(C(=O)OC)C1 (configuration not stated)	9%	12%
O=C(CSc1nnc(-c2cccc(Cl)c2)o1)Nc1ccc2c(c1)OC1(CCCCC1)O2	-5%	0%
COc1ccc(-c2nn(Cc3nc(-c4ccccc4C)no3)c(=O)c3ccccc23)cc1	50%[activator]	25%
COc1cc(CNC(=O)Cc2ccc(C)cc2)ccn1	12%	28%
O=C(CC12CC3CC(CC(C3)C1)C2)OCC(=O)c1ccc2c(c1)OCO2	22%	0%
Cc1nn(-c2ccc3nncn3n2)c2c1C(c1cccc(Br)c1)CC(=O)N2 (configuration not stated)	-10%	-9%
CCOc1ccc(NC(=O)CC2C(=O)N(c3ccccc3)C(=O)N2Cc2cccc(OC)c2)cc1 (configuration not stated)	3%	18%
COc1ccc(CC(=O)Nc2sc3c(c2C(=O)Nc2cccc(C)c2)CCCCC3)cc1	-16%	1%
